Assay outcomes deposited in PubChem by National Center for Advancing Translational Sciences (NCATS).
gsp antagonist: antagonists of gsp mutant (McCune-Albright syndrome); Potency, µM (doses to about 76.9 µM), for the others: at the top dose activity change, negative = inhibition, hits mostly inhibitors; AID 624288; gsp-mutant cells, cAMP HTRF, 30 min; control for the full effect not named in the record; 340,000 compounds, 0.4% hits; active = falling curve of any shape with a large fitted effect; inconclusive = falling curve, mostly with a smaller effect; inactive = flat or rising curve; cell line not stated here;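 note: intracellular cAMP measured with PDE inhibitor Ro 20-1724 present during compound exposure; potency is the fitted concentration of half-maximal effect; % is set by controls: 0 for no effect and ±100 for the full control effect; nearly all actives have a fitted effect of over 65% in size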
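HTRF cAMP measurement after 30 min RT detection following 30 min, 37C compound treatment alongside […] (added as 300 uM solution) in G418-selected cells seeded at 2000/well and grown 16–24 h.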
Sfp inh: Sfp phosphopantetheinyl transferase inhibition; Q9F4F7; Biochemical Sfp PPTase activity, qHTS; Potency, µM, for inactives: max response, negative = inhibition, actives largely listed as inhibitors; 310,000 compounds, 3.5% hits; AID 1490; active = well fitted inhibition curve with a large enough effect; inconclusive = small, poorly fitted or top-dose-only effect, or another doubt; inactive = no such curve, though single readings can be large or run the other way;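 note: the enzyme is Sfp with the accession as filed and its product quenches rhodamine fluorescence; potency is the fitted concentration of half-maximal effect; 0% = enzyme reaction without inhibitor and -100% = no enzyme wells; top concentration of the series not given in the record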
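With Hepes-Na pH 7.6 buffer containing 10 mM MgCl2, Sfp (15 nM) modified BHQ-2-YbbR (12.5 uM) using rhodamine-CoA (5 uM). Two reads 30 minutes apart at 525/598 nm yielded each well's rate.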
gsp ag: agonists of gsp mutant (McCune-Albright syndrome); gsp mutant cells, cAMP HTRF, 30 min; control for the full effect not named in the record; Potency, µM (doses to about 76.9 µM), for the others: at the highest dose activation (cAMP increase), hits mostly activators; 340,000 compounds, 0.13% hits; AID 624287; active = well fitted activation curve with a large enough effect; inconclusive = small, poorly fitted or top-dose-only effect, or another doubt; inactive = no such curve, though single readings can be large or run the other way; cell line not stated here;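 note: phosphodiesterase inhibitor Ro 20-1724 added with compounds to block cAMP breakdown; potency is the fitted concentration of half-maximal effect; nearly all actives have a fitted effect of over 60% in size; about a fifth of the inactives were tested at one dose only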
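Cells stably selected in G418 were plated at 2000/well, grown 16-24 hr, then given compounds in DMSO with the PDE inhibitor […] (300 uM solution added) for 30 min at 37C; cAMP was read by HTRF.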
TRPV1 PAM: potentiators of human vanilloid receptor 1 (TRPV1); AID 540277; TRPV1-expressing cells, Fluo-8 calcium influx, capsaicin EC20 potentiation; host cell line not named in the record; control for the full effect not named in the record; potentiation, % at 8.33 µM; Q8NER1; 320,000 compounds, 0.02% hits; active means potentiation above 80%; inconclusive means 30% to 80%; inactive means below 30%; note: 0% is about no effect
Target sequence (Q8NER1 whole entry, looked up): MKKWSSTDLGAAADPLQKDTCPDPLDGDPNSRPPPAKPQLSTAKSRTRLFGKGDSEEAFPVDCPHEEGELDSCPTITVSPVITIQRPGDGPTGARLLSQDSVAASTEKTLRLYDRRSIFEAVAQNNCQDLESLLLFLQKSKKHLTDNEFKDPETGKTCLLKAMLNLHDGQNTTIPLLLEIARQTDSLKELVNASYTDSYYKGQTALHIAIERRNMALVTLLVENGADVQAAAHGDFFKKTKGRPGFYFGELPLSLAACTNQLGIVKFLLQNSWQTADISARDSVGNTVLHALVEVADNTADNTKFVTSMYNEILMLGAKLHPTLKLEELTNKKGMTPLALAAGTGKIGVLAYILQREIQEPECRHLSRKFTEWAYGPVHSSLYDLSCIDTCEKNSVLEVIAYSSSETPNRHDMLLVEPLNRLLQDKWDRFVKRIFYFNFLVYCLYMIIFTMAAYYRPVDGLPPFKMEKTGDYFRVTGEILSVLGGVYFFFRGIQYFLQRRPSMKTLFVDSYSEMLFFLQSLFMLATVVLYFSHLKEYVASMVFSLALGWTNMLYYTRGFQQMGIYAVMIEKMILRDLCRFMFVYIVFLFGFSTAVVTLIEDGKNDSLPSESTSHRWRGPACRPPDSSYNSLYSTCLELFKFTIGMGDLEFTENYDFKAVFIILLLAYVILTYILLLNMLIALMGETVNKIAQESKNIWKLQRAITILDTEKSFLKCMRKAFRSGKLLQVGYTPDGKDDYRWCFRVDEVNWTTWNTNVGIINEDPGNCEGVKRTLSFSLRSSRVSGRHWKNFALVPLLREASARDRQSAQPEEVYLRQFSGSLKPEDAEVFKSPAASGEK
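Fluo-8 calcium influx in TRPV1-expressing cells, kinetic read (ex 480/em 520 nm). Compound added and read 3 min for agonist activity, followed by capsaicin at EC20 final and 2 min further read for enhancement.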
Menin-MLL FL inh: inhibitors of human menin-MLL interaction, wild-type MLL peptide | Fluorescence polarization, fluorescein-MLL peptide displacement from menin | FP activity change, % at 61.4 µM | 290,000 tested, under 10 active | AID 1766; inconclusive = falling polarisation curve, or a change in total fluorescence; inactive = total fluorescence flat and polarisation flat or rising; no compound was filed as active; the % refers to the polarisation; negative = inhibition;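 note: % of control where 0% means no effect; inhibitors lower the polarisation; unlabelled MLL peptide was the positive control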
ClpP mod: qHTS Assay for Activators of ClpP | purified B. subtilis ClpP, FRET peptide cleavage, 20 min | Potency, µM (series often up to 57.5 µM), for the others: at the highest dose activity change, negative = active | 340,000 compounds, 1.9% hits | AID 651965, 2013; active = well fitted falling curve with a large enough effect; inconclusive = small, poorly fitted or top-dose-only effect; inactive = no such curve, though single readings can be large or run the other way; note: potency is the fitted concentration of half-maximal effect; the source files actives as falling curves though it sought activators and does not explain the sign; nearly all actives have a fitted effect of over 65% in size; many hits overshoot -100%
Target sequence (P80244 whole entry, looked up): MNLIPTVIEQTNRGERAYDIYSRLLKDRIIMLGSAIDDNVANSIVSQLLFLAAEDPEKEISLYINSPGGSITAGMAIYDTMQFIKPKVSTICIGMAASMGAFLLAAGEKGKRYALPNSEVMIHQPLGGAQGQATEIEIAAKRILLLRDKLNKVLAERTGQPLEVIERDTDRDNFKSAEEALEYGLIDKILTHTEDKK
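ClpP 10 microg/mL final, pH 8 Tris/KCl buffer with BSA, glycerol, Tween-20; compound pinned in; FRET-FV substrate; RT 20 min; Ex320/Em430; ΔFRET vs ADEP 5.8 microM, DMSO, no enzyme.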
CtBP-E1A inh: blocks the CtBP interaction with E1A; AID 651724; 340,000 compounds, 0.49% hits; AlphaScreen GST-E1A/His-CtBP binding, 1536-well; active compounds read low; control for the full effect not named in the record; activity change, % (concentration not given with the values); in the data active means activity change below about -65%; inconclusive means about -30% to -65%; inactive means above about -30%; note: % is set by controls: 0 for no effect and ±100 for the full control effect
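Steps: dispense buffer (Tris pH 8.0, NaCl 300 mM, TCEP 1 mM, BSA, Tween 20); add 5X protein mix (GST-E1A, His-CtBP, 125 nM each); pin 23 nL compound; 2 h at 37 °C, dark; add 5X beads (50 ug/mL); 1 h; read.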
* marks the source's active call; other numbers are inactive results; & = joins results of further samples; [ ] = dose if it differs, or a comment.

How did COc1ccccc1C(=O)NC(C(=O)NCCc1nc2ccccc2[nH]1)=C(C)C do in these assays?
gsp antagonist: -5%; Sfp inh: 7%; gsp ag: -8%; TRPV1 PAM: -5; ClpP mod: -0.9%; CtBP-E1A inh: 0

Results for c1ccc(-c2csc(NC3CCCCC3)n2)cc1 ?
gsp antagonist: -3%; Sfp inh: -8%; gsp ag: 7%[15.4 µM]; TRPV1 PAM: -2; Menin-MLL FL inh: -1.6; CtBP-E1A inh: 0

How did O=C(Cc1cccs1)Nc1ccc([N+](=O)[O-])cc1 do in these assays?
gsp antagonist: 3%; Sfp inh: 14%; gsp ag: -45%; TRPV1 PAM: 0; Menin-MLL FL inh: -2.0; ClpP mod: -1.2%

Results for COc1ccc(-c2nc(CSCC(=O)N3CCC(C(N)=O)CC3)c(C)o2)cc1OC ?
gsp antagonist: 3%; Sfp inh: -30%; gsp ag: -3%; TRPV1 PAM: 7; Menin-MLL FL inh: 1.4; ClpP mod: 3.6%; CtBP-E1A inh: 0

How did O=C(NNC(=S)Nc1ccccc1Cl)c1ccncc1 do in these assays?
gsp antagonist: -2%; Sfp inh: 8%; gsp ag: 15%[15.4 µM]; TRPV1 PAM: 10; Menin-MLL FL inh: 0.3; CtBP-E1A inh: 7

Results for CCN(C(=O)CSc1ccc2ccccc2n1)C1CCCCC1 ?
gsp antagonist: inconclusive; gsp ag: -18%; ClpP mod: -1.0%; CtBP-E1A inh: 9

How did Cc1nn(-c2ccccc2)c(C)c1/C=C/C(=O)OCC(=O)N(C)C1CCS(=O)(=O)C1 (configuration not stated) do in these assays?
gsp antagonist: -1%; Sfp inh: -5%; gsp ag: -7%[15.4 µM]; TRPV1 PAM: -1; Menin-MLL FL inh: -0.4; ClpP mod: -17%; CtBP-E1A inh: inconclusive

What do the screens show for `CCCC(c1nnnn1CS(=O)(=O)c1ccc(C)cc1)N1CCN(c2ccc(F)cc2)CC1` (configuration not stated)?
gsp antagonist: 0%; Sfp inh: -7%; gsp ag: -30%; TRPV1 PAM: -16; Menin-MLL FL inh: -1.3; ClpP mod: 0.0%; CtBP-E1A inh: 1

Results for C=CCOc1ccc(/C=C2\SC(=S)N(NS(=O)(=O)c3ccc(C)cc3)C2=O)cc1 ?
gsp antagonist: inconclusive; Sfp inh: -3%; gsp ag: 14%; TRPV1 PAM: 25; Menin-MLL FL inh: 2.3; CtBP-E1A inh: 1

Results for Cc1ccc(C)c(SCc2noc(C(=O)NC(C)C)c2C(=O)O)c1 ?
gsp antagonist: -15%; Sfp inh: 2%; TRPV1 PAM: -4; Menin-MLL FL inh: -0.2; ClpP mod: -1.1%; CtBP-E1A inh: 2

How did N#Cc1c(-c2ccccc2)[nH]c(=S)[nH]c1=O do in these assays?
gsp antagonist: 9%; Sfp inh: 50µM*; gsp ag: 30%; TRPV1 PAM: 17; Menin-MLL FL inh: 3.6; ClpP mod: -1.0%; CtBP-E1A inh: -5

Results for CC(C)Oc1ccc(N2C(=O)c3ccccc3C2=O)cc1 ?
gsp antagonist: 14%; Sfp inh: 19%; gsp ag: 6%; TRPV1 PAM: -13; Menin-MLL FL inh: 2.8; ClpP mod: 0.1%; CtBP-E1A inh: -1

Results for Cc1ccc(S(=O)(=O)N2CCC(C(=O)NCC3CC3)CC2)cc1 ?
gsp antagonist: -1%; Sfp inh: 7%; gsp ag: -1%; TRPV1 PAM: -3; Menin-MLL FL inh: 1.3; CtBP-E1A inh: 8

Results for COc1cccc(NC(=O)N2CCCC2C(=O)NCc2ccc(Cl)cc2)c1 (configuration not stated) ?
gsp antagonist: -32%; Sfp inh: 7%; gsp ag: -5%; TRPV1 PAM: 10; Menin-MLL FL inh: 4.9; ClpP mod: 1.3%; CtBP-E1A inh: 0

Results for CCOC(=O)C(=Nc1ccc(Cl)cc1)NO ?
gsp antagonist: 13%; Sfp inh: -6%; gsp ag: -11%; TRPV1 PAM: 2; Menin-MLL FL inh: 4.6; ClpP mod: 1.5%; CtBP-E1A inh: 2

Results for O=S(=O)(N/N=C1/CCCc2ccccc21)c1ccc(Br)cc1 ?
gsp antagonist: -13%; Sfp inh: 12%; gsp ag: -27%; TRPV1 PAM: 1; Menin-MLL FL inh: -1.4; ClpP mod: 0.5%; CtBP-E1A inh: -1

What do the screens show for `COc1ccc(OC)c(/C=N/Nc2nc(C)cc(=O)[nH]2)c1`?
gsp antagonist: 0%; Sfp inh: inconclusive; gsp ag: -3%[15.4 µM]; TRPV1 PAM: 10; Menin-MLL FL inh: -1.1; ClpP mod: -1.9%; CtBP-E1A inh: -3

What do the screens show for `N#CC1CCN(c2ncccc2[N+](=O)[O-])CC1`?
gsp antagonist: -19%; Sfp inh: 10%; gsp ag: -2%[15.4 µM]; TRPV1 PAM: 0; Menin-MLL FL inh: 0.4; CtBP-E1A inh: 2

What do the screens show for `O=C(O)c1cnn2c(-c3ccccc3)ccnc12`?
gsp antagonist: 0%; Sfp inh: inconclusive; gsp ag: inconclusive; TRPV1 PAM: 10; Menin-MLL FL inh: 5.7; CtBP-E1A inh: -6

Results for CCOC(=O)c1c(NC(=O)/C=C/C(=O)O)sc(C)c1-c1ccc(F)cc1 ?
gsp antagonist: 6%; Sfp inh: 50µM*; gsp ag: 12%[15.4 µM]; TRPV1 PAM: 2; Menin-MLL FL inh: -0.9; ClpP mod: -1.6%; CtBP-E1A inh: -7

What do the screens show for `O=C1C2C3c4ccccc4C(c4ccccc43)C2C(=O)N1/N=C/c1cccc(O)c1` (configuration not stated)?
gsp antagonist: -24%; Sfp inh: -8%; gsp ag: -27%; TRPV1 PAM: 6; Menin-MLL FL inh: 0.7; ClpP mod: -7.7%; CtBP-E1A inh: -7

How did O=C(COC(=O)c1ccccn1)Nc1nc(-c2cccc([N+](=O)[O-])c2)cs1 do in these assays?
gsp antagonist: -2%; Sfp inh: -13%; gsp ag: -5%[15.4 µM]; TRPV1 PAM: 21; Menin-MLL FL inh: -1.7; CtBP-E1A inh: -27

Results for COC(=O)c1c(NC(=O)Cn2cc([N+](=O)[O-])cn2)sc2c1CCC2 ?
gsp antagonist: 11%; Sfp inh: 9%; gsp ag: -7%; TRPV1 PAM: 1; Menin-MLL FL inh: -1.0; ClpP mod: 13µM*; CtBP-E1A inh: 4

What do the screens show for `CCCNc1cc(=S)nc(N)[nH]1`?
gsp antagonist: 7%; Sfp inh: inconclusive; gsp ag: -48%[inhibitor]; TRPV1 PAM: 4; Menin-MLL FL inh: -0.4; ClpP mod: -1.7%; CtBP-E1A inh: -22

What do the screens show for `CCCn1c(SCC(=O)NC2CC2)nnc1-c1ccccn1`?
gsp antagonist: 9%; Sfp inh: 1%; gsp ag: 3%; TRPV1 PAM: -2; CtBP-E1A inh: -1

How did CCOc1ccc(N2C(=O)/C(=C/c3ccccc3OCC(=O)OC)N(CC(=O)OC)C2=S)cc1 do in these assays?
gsp antagonist: -12%; Sfp inh: 7%; gsp ag: -7%[15.4 µM]; TRPV1 PAM: 1; Menin-MLL FL inh: 4.1; CtBP-E1A inh: -4

What do the screens show for `Cc1cc(C)n(-c2nc3ccccc3c(=O)n2OCC(C)C)n1`?
gsp antagonist: 10%; Sfp inh: 11%; gsp ag: 19%[15.4 µM]; TRPV1 PAM: -5; Menin-MLL FL inh: -1.9; ClpP mod: -5.6%; CtBP-E1A inh: -1

What do the screens show for `Cc1ccc(-c2cc(C(=O)O)n[nH]2)s1`?
gsp antagonist: -8%; Sfp inh: 3%; gsp ag: -22%[15.4 µM]; TRPV1 PAM: -2; Menin-MLL FL inh: -0.8

What do the screens show for `O=C(NCCc1ccccc1Cl)C1CCC(=O)N(Cc2cccc(C(F)(F)F)c2)C1` (configuration not stated)?
gsp antagonist: 6%; Sfp inh: 10%; gsp ag: 3%[15.4 µM]; TRPV1 PAM: -10; ClpP mod: 2.0%; CtBP-E1A inh: 0

What do the screens show for `CN1C(C(=O)Nc2ccc(F)cc2F)=CC(c2cccs2)=NS1(=O)=O`?
gsp antagonist: 3%; Sfp inh: 9%; gsp ag: 2%; TRPV1 PAM: inconclusive; Menin-MLL FL inh: 0.1; ClpP mod: -3.9%&-7.5%; CtBP-E1A inh: 3

How did CC1Sc2ccc(S(=O)(=O)N(C)Cc3ccccc3)cc2NC1=O (configuration not stated) do in these assays?
gsp antagonist: -16%; Sfp inh: 8%; gsp ag: inconclusive; TRPV1 PAM: 13; ClpP mod: -5.6%; CtBP-E1A inh: -6

Results for COc1ccc(S(=O)(=O)N2CCN(C(=O)c3cc4c(s3)CCC4)CC2)cc1 ?
gsp antagonist: -6%; gsp ag: -1%[15.4 µM]; ClpP mod: -0.7%; CtBP-E1A inh: -2

Results for O=C(OCn1nnc2ccccc2c1=O)c1ccc2ncsc2c1 ?
gsp antagonist: -13%; Sfp inh: -7%; gsp ag: 14%; TRPV1 PAM: -8; Menin-MLL FL inh: 3.7; ClpP mod: -0.6%; CtBP-E1A inh: -1

What do the screens show for `CCn1c(SCC(=O)NCCc2ccccc2)nc2sc3c(c2c1=O)CCN(C)C3`?
gsp antagonist: -4%; Sfp inh: 4%; gsp ag: 0%[15.4 µM]; TRPV1 PAM: 0; Menin-MLL FL inh: 6.5; ClpP mod: 0.2%; CtBP-E1A inh: 0

Results for N#CC(C(=O)c1ccc(S(=O)(=O)N2CCCCCC2)cc1)c1nc2ccccc2[nH]1 (configuration not stated) ?
gsp antagonist: -10%; Sfp inh: -2%; gsp ag: -3%; TRPV1 PAM: -10; Menin-MLL FL inh: -1.1; ClpP mod: 31%; CtBP-E1A inh: 15
